Assay outcomes deposited in PubChem BioAssay by Southern Research Specialized Biocontainment Screening Center.
Mtb bLac sens: beta-lactam sensitization of Mtb H37Rv; hit rate 0.27% among 330,000; inhibition, % at 25 µM; M. tuberculosis H37Rv growth with meropenem, percent inhibition; hits of this screen are not shown here; AID 434955;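 active = about 74% or more and at least 40 points above the plate without the antibiotic, then above 30% in a dose series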;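 also: growth measured after seven days incubation then overnight dye step; 0% = bacteria only wells and 100% = bacteria with antibiotic; twin plates without the antibiotic show which effects depend on it; some results filed as inactive read as strong as hits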
The depositor's hits bear a star. A portion of the library; rates above refer to the full screens.

SMILES,Mtb bLac sens
Cc1n[nH]c(C)c1S(=O)(=O)N1CCCC(C(=O)O)C1 (centres undefined),-7
Cc1ccc(S(=O)(=O)Nc2ccc3c(c2)C(=O)N([C@H](C)CO)C[C@@H](C)[C@@H](CN(C)C(=O)Nc2cccc4ccccc24)O3)cc1,7
COc1cc(OC)cc(C(=O)N[C@H](C(=O)OCC(=O)Nc2cccnc2Cl)C(C)C)c1,0
Cn1nnnc1SCC(=O)Nc1cccc(S(=O)(=O)N2CCCCC2)c1,-8
CC(Sc1nnc(C(F)(F)F)n1C)C(=O)Nc1ccc(N2CCOCC2)cc1 (centres undefined),-1
CCCn1c(N)c(C(=O)CSc2nnc(C3CC3)n2C2CC2)c(=O)[nH]c1=O,-8
O=C(CCN1CCOCC1)NNC(=O)c1ccc([N+](=O)[O-])cc1[N+](=O)[O-],-2
COc1ccc(C2(c3ccc(OC)cc3)NC(=O)N(CC(=O)NC3(C#N)CCCC3)C2=O)cc1,-3
CN(CC(=O)Nc1ccccc1Cl)C(=O)COC(=O)c1ccc(-c2ccc(O)cc2)cc1,-3
COc1cc(C(=O)NC2CCCC(C)C2C)ccc1OCC(=O)N1CCOCC1 (centres undefined),1
Cc1cccc(C)c1NC(=O)CN(C)C(=O)CCC(=O)N1CCOCC1,-3
CC1(c2ccc3c(c2)OCCCO3)NC(=O)N(CC(=O)Nc2cccc(C#N)c2)C1=O (centres undefined),8

Taken from above.
Cn1nnnc1SCC(=O)Nc1cccc(S(=O)(=O)N2CCCCC2)c1 @ Mtb bLac sens: -8
CC1(c2ccc3c(c2)OCCCO3)NC(=O)N(CC(=O)Nc2cccc(C#N)c2)C1=O (centres undefined) @ Mtb bLac sens: 8
Cc1n[nH]c(C)c1S(=O)(=O)N1CCCC(C(=O)O)C1 (centres undefined) @ Mtb bLac sens: -7
COc1cc(C(=O)NC2CCCC(C)C2C)ccc1OCC(=O)N1CCOCC1 (centres undefined) @ Mtb bLac sens: 1

(listing goes on)
SMILES,Mtb bLac sens
Cc1ccc(C(=O)NC2CCN(CC(=O)Nc3ccccc3Cl)CC2)cc1,-1
O=C(COC(=O)C12CC3CC(CC(C3)C1)C2)NCc1ccccc1,2
O=C(CN1C(=O)NC2(CCCCC2)C1=O)Nc1ccc(Cl)cc1,-4
COC(=O)C1=C(c2ccc(F)cc2OCc2ccccc2)C[C@@H]2CC[C@H]1N2C(=O)NC1CC1,6
Cc1noc(C)c1S(=O)(=O)N(C)C[C@H]1Oc2ccc(NC(=O)NC3CCCCC3)cc2C(=O)N([C@H](C)CO)C[C@@H]1C,-7
O=C(COC(=O)CCc1ccccc1)NNC(=O)c1ccccc1,4
CN(C(=O)CN1C(=O)c2ccc([N+](=O)[O-])cc2C1=O)C1CCCCC1,2
CC12CCC(=O)N1C(C(=O)Nc1cc(Cl)ccc1N1CCCC1)CS2 (centres undefined),-1
COc1ccccc1C(=O)N/N=C/c1ccc2c(c1)OCO2,-2
Cc1ccc(C)c(N)c1,4
CCOc1ccc(S(=O)(=O)N2CCN(C(=O)CN3C(=O)NC(C)(C)C3=O)CC2)cc1,3
C[C@@H]1CN(S(=O)(=O)c2c(F)cccc2F)CCN1S(=O)(=O)c1ccc2c(c1)OCCO2,-12
COc1cc(-c2noc(C)c2C(=O)NCCc2cccs2)cc(OC)c1OC,-3
CC(NC(=O)c1cc(S(=O)(=O)N2CCOCC2)ccc1F)c1ccc(-n2ccnc2)cc1 (centres undefined),5
O=C(Nc1ccc2c(c1)OCCO2)C1CCCC1,-9
COc1cc(N)c(Cl)cc1C(=O)OCC(=O)N(C)C1CCCCC1,15
Cc1cc(OCC(=O)OCC(=O)Nc2ccc(Cl)cn2)ccc1Cl,-5
Cc1c(C(=O)Nc2cccc(S(=O)(=O)N3CCOCC3)c2)oc2ccccc12,1
CN(C(=O)c1ccccc1C(=O)OCC(=O)c1ccccc1)c1ccccc1,-4
O=C(Nc1cc(S(=O)(=O)N2CCCCCC2)ccc1OCC(F)(F)F)c1ccc(=O)[nH]c1,5
CC(OC(=O)C1CC(=O)N(Cc2ccco2)C1)C(=O)Nc1ccccc1[N+](=O)[O-] (centres undefined),5
CC1(C2CC2)NC(=O)N(CC(=O)NCc2ccc(Cl)cc2Cl)C1=O (centres undefined),2
COc1ccccc1NCCC(=O)OCC(=O)Nc1cccc(S(=O)(=O)N(C)C)c1,-5
CCOc1ccc(C(=O)NNC(=O)CCNC(=O)c2ccc(Br)cc2)cc1OC,-2
COc1cc(C(=O)NC(C)c2cc(C)ccc2C)ccc1OCC(=O)N1CCOCC1 (centres undefined),-3
COc1cc(=O)[nH]c(SC(C)C(=O)Nc2ccc3ccccc3c2)n1 (centres undefined),3
CC[C@@]1(C(=O)OC)N[C@H](CN(C)C(=O)C2CCCCC2)[C@@H]2C(=O)N(C)C(=O)[C@@H]21,0
Cc1noc(C)c1COc1ccc(C(=O)N2CCN(c3ccccc3O)CC2)cc1,-5
O=C(COC(=O)/C=C/c1cccc(Br)c1)NC1CCCC1,10
COc1ccc(NS(=O)(=O)c2cccc(NC(=O)COc3ccccc3[N+](=O)[O-])c2)cc1,3
CC(=O)[C@H]1CC[C@H]2[C@@H]3C=CC4=CC(=O)CC[C@@]4(C)[C@@H]3CC[C@]12C,16
COc1ccccc1NCCC(=O)OCC(=O)Nc1cc([N+](=O)[O-])ccc1F,-2
CCOc1ncccc1C(=O)Nc1cccc(-n2cnnn2)c1C,-1
Cc1ccc(S(=O)(=O)N2CCCC2)cc1C(=O)N1CCN(Cc2ccccc2)CC1,-5
O=C(COC(=O)C1CCC(=O)N1)Nc1ccccc1OC(F)F (centres undefined),-6
Oc1c(Br)cc(Br)cc1Br,7
Cc1ccc(Cl)c2c1NC(=O)C2=O,-3
CCOC(=O)[C@H]1[C@H]2COc3ccc(Cl)cc3[C@@H]2N2C(=O)c3ccc(C)cc3NC(=O)[C@@]12C,19
CN(C)S(=O)(=O)c1ccc(C(=O)NNC(=O)C23CC4CC(CC(C4)C2)C3)cc1,0
COc1cccc(-c2ccc3ncnc(NCc4cccc(C)c4)c3c2)c1,99
O=C(CSc1nnc(Nc2ccccc2F)s1)NCC1CCCO1 (centres undefined),-1
CC1CN(C(=O)COc2ccc3c(-c4ccccc4)cc(=O)oc3c2)CC(C)O1 (centres undefined),-5
CC(N)C(=O)OC(C)(C)Cc1ccc(Cl)cc1 (centres undefined),-3
O=C(NCc1n[nH]c(=S)n1-c1ccc(Br)cc1)c1ccc(S(=O)(=O)N2CCCCC2)cc1,1
COc1ccc2cc1Oc1ccc(cc1)C[C@H]1c3cc(c(OC)cc3CCN1C)Oc1c(OC)c(OC)cc3c1[C@@H](C2)N(C)CC3,-2
C=C1C[C@H](O)[C@@H]2[C@H](OC(=O)[C@H]2C)[C@H]2[C@H](C)[C@@H](O)C[C@@H]12,5
O=C(O)/C(=C\c1cccc(F)c1)c1ccc(S(=O)(=O)N2CCCC2)s1,1
C[C@H](CO)N1C[C@H](C)[C@@H](CN(C)C(=O)NC2CCCCC2)Oc2c(NC(=O)C3CCCCC3)cccc2C1=O,-4
CCN(C[C@H]1N[C@@](CC)(C(=O)OC)[C@H]2C(=O)N(C)C(=O)[C@@H]12)C(=O)Nc1ccc(F)cc1,-1
O=C1CN(C(=O)COC(=O)c2ccccc2Br)c2ccccc2N1,-1
O=C(COC(=O)Cc1ccsc1)Nc1ccc(Cl)cc1F,6
O=C(CN1CCCSc2ccccc21)N1CCN(S(=O)(=O)c2cccc(F)c2)CC1,0
COc1ccccc1Cn1c(=O)oc2ccc(C)cc21,-14
CC1(NC(=O)Cc2c(F)cccc2Cl)CCS(=O)(=O)C1 (centres undefined),6
O=C1NC(C(=O)O)=CC(c2cccc(Cl)c2Cl)N1 (centres undefined),-1
COc1ccc(OC)c(S(=O)(=O)N2CCN(C)CC2c2ccccc2)c1 (centres undefined),3
CCN(C(=O)COC(=O)CCn1c(C)csc1=O)c1c(N)n(Cc2ccccc2)c(=O)[nH]c1=O,-2
NS(=O)(=O)c1ccc(CNC(=O)c2cc(=O)[nH]c3ccccc23)cc1,0
O=C(NCCN1C(=O)S/C(=C\c2ccc(Cl)cc2)C1=O)C1=COCCO1,-1
Cc1ccc(SCC(=O)N2CCN(S(=O)(=O)c3cccs3)CC2)cc1,-9

Quoted at random: 5 records from the list, in no set order.
SMILES,Mtb bLac sens
CN(C(=O)CN1C(=O)c2ccc([N+](=O)[O-])cc2C1=O)C1CCCCC1,2
CN(CC(=O)Nc1ccccc1Cl)C(=O)COC(=O)c1ccc(-c2ccc(O)cc2)cc1,-3
CC12CCC(=O)N1C(C(=O)Nc1cc(Cl)ccc1N1CCCC1)CS2 (centres undefined),-1
COc1cc(=O)[nH]c(SC(C)C(=O)Nc2ccc3ccccc3c2)n1 (centres undefined),3
COc1ccccc1NCCC(=O)OCC(=O)Nc1cc([N+](=O)[O-])ccc1F,-2

For reference, part of the list above.
SMILES,Mtb bLac sens
CCN(C[C@H]1N[C@@](CC)(C(=O)OC)[C@H]2C(=O)N(C)C(=O)[C@@H]12)C(=O)Nc1ccc(F)cc1,-1
O=C1CN(C(=O)COC(=O)c2ccccc2Br)c2ccccc2N1,-1
O=C(COC(=O)Cc1ccsc1)Nc1ccc(Cl)cc1F,6
O=C(CN1CCCSc2ccccc21)N1CCN(S(=O)(=O)c2cccc(F)c2)CC1,0
COc1ccccc1Cn1c(=O)oc2ccc(C)cc21,-14

The listing continues.
SMILES,Mtb bLac sens
CC[C@@H](C)[C@@H]1CN([C@@H](C)CN2CCC[C@H]2CN2C(N)=NC[C@@H]2Cc2ccccc2)C(=N)N1CCc1ccc(Cl)c(Cl)c1,100
COc1ccc(-n2c(SCC(=O)N(C)C3CCS(=O)(=O)C3)nc3ccc(O)cc3c2=O)cc1OC (centres undefined),-5
O=C(N/N=C/c1ccc(Cl)cc1Cl)c1ccc(-n2cnnn2)cc1,-7
COc1cccc(CNC(=O)c2ccc(NS(=O)(=O)c3ccc4[nH]c(=O)[nH]c4c3)cc2)c1,-7
O=C(NCCCN1CCOCC1)c1cccc(S(=O)(=O)Nc2ccc(F)cc2)c1,-7
O=C(NC1CCCCC1)c1cc(C2CC2)nn1-c1ccccc1,4
CC1CC(C)CN(C(=O)c2cccc(S(=O)(=O)NCc3ccccc3)c2)C1 (centres undefined),-9
COc1ccc(NC(C)=O)cc1S(=O)(=O)N1CCn2cccc2C1C (centres undefined),-11
CCOC(=O)C1=C(C)NC(C)=C(C(=O)OCC)C1C(=O)OCC(=O)N1CC(C)OC(C)C1 (centres undefined),7
CC(=O)NCCc1ccc(C(=O)COC(=O)c2cccn2C)cc1,-4
C[C@H](CO)N1C[C@H](C)[C@@H](CN(C)S(C)(=O)=O)Oc2ccc(NC(=O)Nc3ccccc3)cc2C1=O,-1
Cc1ccc(NC(=O)CC2OC(=O)c3ccccc32)cc1S(=O)(=O)N1CCOCC1 (centres undefined),-7
O=C(Nc1ccc(Cl)c(Cl)c1)C1CCCCC1,61
O=C1CN(C(=O)CN2C(=O)NC(c3ccccc3)(c3ccccc3)C2=O)c2ccccc2N1,-4
COc1ccc(CNC(=O)C(C)OC(=O)c2cccc(N(C)C)c2)cc1 (centres undefined),3
CCCc1cc(C(=O)NNC(=S)NC2CCCCC2)cs1,5
NC(=O)C1CCN(c2nc(-c3cc4ccccc4o3)cs2)CC1,19
COc1ccc(C(=O)COC(=O)c2ccccn2)c(OC)c1,16
COc1cc(NC(=O)c2ccccc2)c(OC)cc1NC(=O)Cc1ccc(C)cc1,-1
O=[N+]([O-])c1ccc(Cl)c(Cl)c1Cl,-3
C[C@H]1CN([C@@H](C)CO)C(=O)Cc2cc(NS(C)(=O)=O)ccc2O[C@@H]1CN(C)CC1CC1,-11
O=C1NC(Cc2ccc(O)cc2)c2nc3ccccc3c(=O)n2-c2cc(Cl)ccc21 (centres undefined),-1
CCOC(=O)[C@H]1[C@H]2COc3ccc(Cl)cc3[C@@H]2N2C(=O)CN(Cc3ccccc3)C(=O)[C@@]12C,-2
C[C@H]1CN([C@@H](C)CO)C(=O)Cc2cc(NC(=O)CCC(F)(F)F)ccc2O[C@H]1CN(C)S(=O)(=O)c1ccc(Cl)cc1,-2
Cc1cc(NC(=O)CSc2nnc(-c3ccco3)n2C)no1,-4
Cc1cc(NC(=O)CSc2n[nH]c(-c3ccccc3Br)n2)no1,-6
Cc1cccc(C)c1NC(=O)CNC(=O)C1CCCC1,4
CC(=O)Nc1ccc(C(=O)CCl)cc1,91
O=C(CN1c2cccc3cccc(c23)S1(=O)=O)N1CCCCC1,0
Cn1cccc1C(=O)NNC(=O)COc1ccc(Br)cc1,6
OCC(Cl)CCl (centres undefined),-3
Cn1c(N)c(C(=O)COC(=O)CNC(=O)c2ccccc2)c(=O)n(C)c1=O,-5
Cc1ccc(Oc2ccc(S(=O)(=O)Nc3ccc(C(=O)O)cc3)cc2)cc1,3
O=C(/C=C/c1ccc([N+](=O)[O-])cc1)OCC(=O)N1CCCCCC1,20
CCN(C(=O)CSc1nc(C)c(C)c(C)n1)C1CCS(=O)(=O)C1 (centres undefined),-2
CC(C)CN(C(=O)CCNC(=O)c1ccc([N+](=O)[O-])cc1)C1CCS(=O)(=O)C1 (centres undefined),-7
NC(=O)c1cccc([N+](=O)[O-])c1,-5
O=C(OCC1OC(n2ncc(=O)[nH]c2=O)C(OC(=O)c2ccccc2)C1OC(=O)c1ccccc1)c1ccccc1 (centres undefined),-7
O=C(N/N=C/C(Cl)=C/c1ccccc1)c1ccc2c(c1)OCO2,0
Cc1cc2c(s1)c1cnn(-c3ccccc3)c(=O)c1n2C,-7
CCOc1ccc(OCCCC(=O)ON=C(N)c2ccccc2Cl)cc1,6
COc1ccc2c(c1)[C@H]1[C@H](CO2)[C@H](c2ccccc2)[C@]2(C)C(=O)Nc3ccc(Br)cc3C(=O)N12,3
